# Arbovirus inh: arbovirus infection inhibition | arbovirus infection cell-based antiviral screen | inhibition, % at 10 µM | 200,000 tested, 0.37% active;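 active = inhibition from about 30%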;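 note: bluetongue infection of BSR cells; cell survival read as ATP light after 72 h; 0% = infected wells without compound and 100% = uninfected wells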
# Mtb bLac sens: beta-lactam sensitization of Mtb H37Rv; 330,000 tested, 0.27% active; AID 434955; inhibition, % at 25 µM; M. tuberculosis H37Rv growth with meropenem, percent inhibition; hits of this screen are not shown here;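 active = about 74% or more and at least 40 points above the plate without the antibiotic, then above 30% in a dose series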;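 note: growth measured after seven days incubation then overnight dye step; 0% = bacteria only wells and 100% = bacteria with antibiotic; twin plates without the antibiotic show which effects depend on it; some results filed as inactive read as strong as hits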
# YopH inh: YopH (Yersinia) phosphatase inhibition | fluorescence Ex485/Em525 | inhibition, %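 (about 10 µM by stock and volumes)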 | 140,000 tested, 0.16% active | AID 898;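 active = inhibition of 50% or more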;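 note: controls were vehicle for no effect and minimum signal wells for full effect; inactives centre near -20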
# RecA intein inh: Mtb RecA intein splicing inhibition. P9WHJ3. cell-free RecA intein splicing, fluorescence. inhibition, %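 (about 9 µM by stock and volumes)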. 290,000 tested, 0.75% active; in the data active = inhibition above about 30%;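 note: 0% = vehicle wells and 100% = reference inhibitor control wells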
# Target sequence (P9WHJ3 whole entry, looked up): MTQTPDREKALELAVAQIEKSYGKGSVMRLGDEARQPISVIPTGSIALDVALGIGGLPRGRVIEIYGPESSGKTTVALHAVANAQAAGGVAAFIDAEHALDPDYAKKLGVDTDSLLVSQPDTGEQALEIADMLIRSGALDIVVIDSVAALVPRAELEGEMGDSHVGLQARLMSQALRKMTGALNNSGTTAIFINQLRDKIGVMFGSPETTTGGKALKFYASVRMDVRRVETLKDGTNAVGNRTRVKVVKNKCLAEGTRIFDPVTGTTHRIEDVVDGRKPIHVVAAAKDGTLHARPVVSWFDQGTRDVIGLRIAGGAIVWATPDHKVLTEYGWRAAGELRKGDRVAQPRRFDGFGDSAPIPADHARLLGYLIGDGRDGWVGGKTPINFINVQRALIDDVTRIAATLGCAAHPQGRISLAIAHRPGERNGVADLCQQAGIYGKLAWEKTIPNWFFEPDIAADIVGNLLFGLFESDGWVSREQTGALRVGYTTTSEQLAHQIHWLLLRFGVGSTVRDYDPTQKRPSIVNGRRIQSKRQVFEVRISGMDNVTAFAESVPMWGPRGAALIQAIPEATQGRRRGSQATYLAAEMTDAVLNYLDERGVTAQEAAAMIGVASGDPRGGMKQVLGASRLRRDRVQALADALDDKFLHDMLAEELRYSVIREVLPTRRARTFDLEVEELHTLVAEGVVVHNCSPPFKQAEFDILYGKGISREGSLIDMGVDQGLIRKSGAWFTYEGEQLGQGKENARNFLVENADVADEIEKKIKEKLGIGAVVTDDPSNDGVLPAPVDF
# Mtb growth: M. tuberculosis H37Rv growth inhibitors, H37Rv strain (AID 1626) | one-dose inhibition, % at 10 µM; IC50 in µM for titrated hits | M. tuberculosis H37Rv growth inhibition; higher % means a stronger effect | 220,000 tested, 0.95% active;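 active = confirmed in a dose series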;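 note: bacteria incubated seven days before Alamar blue readout; 0% = bacteria only wells and 100% = bacteria with antibiotic wells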
# Arbovirus inh repeat: also measured in Arbovirus inh; calls as there; inhibition, %; measured here: 10K subset replicate screen; many hits read low in the repeat;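 first of two repeat runs on a subset; 0% = infected and 100% = uninfected wells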
# * hit, by the source's call; . = no result given. Not all compounds are listed; the hit share may differ from the screen's.
SMILES,Arbovirus inh,Mtb bLac sens,YopH inh,RecA intein inh,Mtb growth,others
CCn1c(SCC(=O)N2CCN(S(=O)(=O)c3ccccc3)CC2)nnc1-c1cccs1,5,2,-36,0.2,-7%,
Cc1cc(C)n(-c2ccc(S(=O)(=O)N3CCCC3)cc2[N+](=O)[O-])n1,.,6,.,-0.1,-2%,
Fc1ccc(CO/N=C2\CCCc3nonc32)cc1,5,1,.,2.9,1%,
COc1ccc(NC(=O)N2CCCC(CCC(=O)N(C)CCc3ccccn3)C2)cc1 (centres undefined),-1,-6,.,-5.1,-2%,
Cc1nc2ncnn2c(C)c1Cc1ccccc1Cl,10,-5,-45,0.8,1%,
O=C(Nc1c(-c2ccccc2)nc2ccccn12)c1cccc(F)c1,.,-11,.,-0.2,.,
CCCN1CCc2c(sc(NC(=O)c3ccc(S(=O)(=O)N(C)c4ccccc4)cc3)c2C(=O)NC)C1,.,70,.,-5.8,.,
O=C(COC(=O)/C=C/c1ccc(C(F)(F)F)cc1)NC1CCS(=O)(=O)C1 (centres undefined),.,-5,.,17,.,
Cc1cccc(C(=O)OCC(=O)Nc2ccc(F)cc2)c1,.,1,.,-2.7,.,
CC1(CCC(=O)N2CCCC(Nc3ccc(F)cc3)C2)CC1 (centres undefined),.,-6,.,1.0,.,
CCN(CC)S(=O)(=O)c1ccc(O)c(C(=O)OCC(=O)NC2CCCC2)c1,.,-6,.,0.3,.,
CCCCC1(C)OC(=O)C(=Cc2ccc(N(CC)CC)cc2)C(=O)O1 (centres undefined),-3,7,-14,3.4,-8%,
Cc1ccc(-n2c(SCc3ccc(C#N)cc3)nnc2-c2ccccn2)cc1,-7,-3,-8,-0.2,-6%,
COc1ccc2cc(CCNC(=O)c3ccc(S(=O)(=O)N4CCCC4)cc3)c(=O)[nH]c2c1,.,-15,.,-0.3,.,
Cc1ncc(CO)c(CNc2ccc(Oc3ccccc3)cc2)c1O,.,75,.,-9.6,.,
Cc1nn(-c2nnc(C)c(=O)[nH]2)c(C)c1SCC(=O)Nc1ccc(F)cc1,6,3,-10,-3.0,-2%,
CCCCN(CC)C(=O)Cc1ccc(Br)cc1,-8,3,-22,8.7,1%,
COCCNc1nc(N)c([N+](=O)[O-])c(NCC2CCCO2)n1 (centres undefined),3,-4,-17,0.8,-3%,
CC(=O)c1cccc(NC(=O)NC2CCCCC2)c1,-4,0,-53,0.2,-4%,
CCN(CC(=O)Nc1c(F)cccc1F)C(=O)C1CCN(S(=O)(=O)c2ccc(F)cc2)CC1,.,-6,.,7.6,.,
CC(C)(C)NC(=O)CCN(/N=C/c1ccccc1)C1=NS(=O)(=O)c2ccccc21,.,-2,.,1.1,.,
CCCCN1CC(C(=O)NCc2ccc(C)cc2)CC1=O (centres undefined),5,0,-1,3.3,-7%,
CSCC[C@H](NC(=O)OC(C)(C)C)c1nnc(SCC(=O)N(C)C)o1,4,-3,-35,-1.4,1%,
COC(=O)CN(c1ccc(C)cc1)S(=O)(=O)c1ccc(F)cc1,8,0,.,0.8,.,
CCN(C(=O)C(C)OC(=O)CCCNC(=O)c1ccc(Cl)cc1)c1ccccc1 (centres undefined),.,-13,.,1.2,.,

# Reprinted from the part before: three entries, then new ones.
SMILES,Arbovirus inh,Mtb bLac sens,YopH inh,RecA intein inh,Mtb growth,others
CSCC[C@H](NC(=O)OC(C)(C)C)c1nnc(SCC(=O)N(C)C)o1,4,-3,-35,-1.4,1%,
COC(=O)CN(c1ccc(C)cc1)S(=O)(=O)c1ccc(F)cc1,8,0,.,0.8,.,
CCN(C(=O)C(C)OC(=O)CCCNC(=O)c1ccc(Cl)cc1)c1ccccc1 (centres undefined),.,-13,.,1.2,.,
Cc1ccsc1CN(C(=O)c1ccccc1)C1CCS(=O)(=O)C1 (centres undefined),.,-2,.,1.7,.,
O=C(O)C1=C[C@H](c2ccc(Br)cc2)C[C@H](OCCCCO)O1,-1,8,.,1.7,3%,
O=C(CNS(=O)(=O)c1ccc(Br)s1)NCCc1ccc(Cl)cc1,.,-1,.,0.0,.,
O=C(O)C1C2CCC(O2)C1C(=O)Nc1ccc(F)c(Cl)c1 (centres undefined),.,1,.,1.4,.,
Cc1cc(C(=O)Nc2ccc(N3CCCC3)c(Cl)c2)ccc1[N+](=O)[O-],14,13,7,-1.5,17%,
COc1ccccc1-n1cc(-c2ccccc2)[nH]c1=S,.,4,.,0.6,.,
CN(C)S(=O)(=O)c1ccc(C(=O)NCC(=O)N/N=C/c2ccco2)cc1,2,3,.,1.0,3%,
O=C(N/N=C/c1ccc(N2CCOCC2)cc1)c1ccc(O)cc1,.,12,.,-0.4,-8%,
CCOC(=O)CN1C(=O)C(O)(C2CCc3ccccc3C2=O)c2ccccc21 (centres undefined),2,-5,-27,0.2,6%,
CCOC(=O)CC(=O)CSc1nc(-c2ccccc2)cc(-c2ccc(Cl)cc2)c1C#N,-25,-8,-13,-2.6,1%,
CC(C)CNC(=O)NC1(C(F)(F)F)Oc2ccccc2O1,-6,1,.,-1.8,-6%,
COc1ccccc1N1CCN(S(=O)(=O)c2c[nH]c(=O)[nH]c2=O)CC1,.,-5,.,-3.1,.,
CN(CC1CCCN(CCc2ccc(F)cc2)C1)C(=O)CCC(N)=O (centres undefined),.,5,.,1.9,.,
O=C(Nc1ccc(Cl)c(Cl)c1)Nc1nnc(-c2ccncc2)s1,21,-15,1,.,3%,
O=C(NCc1cccnc1)c1ccc2c(c1)C(=O)N(Cc1ccccc1)C2=O,.,-15,.,0.9,.,
CC(C)(C)c1ccc(NC(=O)C2CCCN(c3cnccn3)C2)cc1 (centres undefined),.,-3,.,5.7,.,
CCN(CC)c1ccc(/C=N/NS(=O)(=O)c2ccc(CNC(C)=O)cc2)cc1,-11,-1,-18,-4.9,1%,
O=C(CSc1nnnn1-c1ccccc1)Nc1ccc(N2CCOCC2)c(Cl)c1,-10,-1,-22,1.9,-4%,
CCOc1ccc(C(=O)CCCC(=O)c2ccc(OCC)cc2)cc1,.,5,.,-2.7,.,
O=c1c(OC2OC(CO)C(O)C(O)C2O)c(-c2ccc(O)c(O)c2)oc2cc(O)cc(O)c12 (centres undefined),2,-4,-56,-3.8,2%,
CC(C)(C)c1cc(OC(=O)c2ccccc2F)ccc1O,-35,5,.,3.7,1%,
COc1ccc(N(CC(=O)Nc2c(C)n(C)n(-c3ccccc3)c2=O)S(=O)(=O)c2ccc(F)cc2)cc1,-1,6,11,-1.1,-1%,
CCOC(=O)c1cnc2c(cnn2C)c1NCCCN(C)C,8,22,-23,0.9,3%,
CC1CN(c2ncnc3c2oc2ccccc23)CC(C)O1 (centres undefined),5,-9,-25,0.5,-10%,
O=C(O)c1cccc(Nc2nc(Nc3ccccc3)nc(N3CCCC3)n2)c1,28,9,.,.,-3%,

# A draw from above in order of count of non-hydrogen atoms, ascending:
SMILES,Arbovirus inh,Mtb bLac sens,YopH inh,RecA intein inh,Mtb growth,others
CN(C)S(=O)(=O)c1ccc(C(=O)NCC(=O)N/N=C/c2ccco2)cc1,2,3,.,1.0,3%,
CCN(CC)c1ccc(/C=N/NS(=O)(=O)c2ccc(CNC(C)=O)cc2)cc1,-11,-1,-18,-4.9,1%,
COc1ccc(N(CC(=O)Nc2c(C)n(C)n(-c3ccccc3)c2=O)S(=O)(=O)c2ccc(F)cc2)cc1,-1,6,11,-1.1,-1%,

# Additional compounds.
SMILES,Arbovirus inh,Mtb bLac sens,YopH inh,RecA intein inh,Mtb growth,others
COc1ccc(CC(NC(C)=O)C(=O)NC2CCN(c3nnnn3-c3ccccc3)CC2)cc1 (centres undefined),4,-5,-23,-0.2,-1%,
CC(C)Cn1cc(C(=O)N2CCC(C)CC2)c2c3ccccc3n(C)c2c1=O,-7,-4,.,3.1,4%,
O=C(Nn1cnnc1)c1cc2c(s1)CCCC2,16,4,20,7.2,-13%,
O=C(Nc1ccc2[nH]ncc2c1)c1ccccc1Br,.,0,.,-1.1,.,
CCOC(=O)c1csc(NC(=O)c2ccc(N3C(=O)CCC3=O)cc2)n1,0,4,.,1.4,-6%,
C/C(=N\N=C(N)N)c1cccc(Cl)c1,-7,-6,.,1.2,8%,
CCN(Cc1ccccc1)C(=O)C1CCN(Cc2sccc2C)CC1,-1,-1,-17,-1.3,-7%,
COCC(=O)N(CCc1ccc(OC)cc1)Cc1nc2ccccc2c(=O)[nH]1,1,3,-9,0.8,-1%,
Cn1c(=O)n(C)c2cc(NS(=O)(=O)c3ccc(Br)s3)ccc21,-3,2,.,-3.7,-1%,
COc1ccc(S(=O)(=O)NC(C)C(=O)Nc2ccccc2C(F)(F)F)cc1 (centres undefined),4,3,-23,1.9,-6%,
COC(=O)C1=NN(C(=O)c2ccccc2)C(O)(c2ccc([N+](=O)[O-])cc2)C1 (centres undefined),.,46,.,10,.,
CCc1nnc(NS(=O)(=O)c2ccc(NC(=S)NC(=O)c3ccc(OC)c(OC)c3)cc2)s1,-7,-1,-33,1.7,-1%,
COc1ccc(NC(=O)Cn2c([N+](=O)[O-])cnc2C)cc1Cl,.,6,.,0.3,.,
O=C(Nc1ccc(S(=O)(=O)Nc2ncccn2)cc1)c1cccnc1,-5,-9,-18,-2.7,-5%,
O=C(NC(Cc1ccccc1)C(=O)O)/C(=C/c1ccco1)NC(=O)c1cccc(Br)c1 (centres undefined),0,1,-22,7.0,-4%,
N#C/C(C(=O)NCCc1ccccc1)=C1/N=C(NC(=O)c2cccs2)c2ccccc21,-5,0,-15,-4.2,1%,
O=C(CCNS(=O)(=O)c1cccs1)N1CCc2ccccc2C1,5,-4,-30,4.2,-6%,
O=C(N/N=C/c1c(F)cccc1Cl)c1cc(C2CC2)[nH]n1,.,3,.,-0.8,.,
c1ccc(OCc2nn3c(C4CCCCC4)nnc3s2)cc1,-23,-5,-31,3.8,0%,
O=c1[nH]c(=S)[nH]c2scc(-c3ccc(Br)cc3)c12,.,30,.,-0.3,.,
O=C(NC1CCCCC1)C1CC(=O)N(c2ccccc2)C1 (centres undefined),.,0,.,1.2,.,
O=C(O)/C=C/C(=O)NCCc1ccccc1,6,3,.,0.2,-6%,
COc1cccc(/C=N/NC(=O)CCCC(=O)NC2CCCCC2)c1,-2,3,0,-3.3,-2%,
Cc1cccc(C)c1NC(=O)Cn1nnc(C(=O)Nc2ccc(F)cc2F)c1N,.,-2,.,-2.0,.,
O=C(N/N=C/C=C/c1ccc([N+](=O)[O-])cc1)C1COc2ccccc2O1 (centres undefined),-10,-1,-8,0.6,-7%,

# Quoted at random: two compounds from above, in no set order.
SMILES,Arbovirus inh,Mtb bLac sens,YopH inh,RecA intein inh,Mtb growth,others
N#C/C(C(=O)NCCc1ccccc1)=C1/N=C(NC(=O)c2cccs2)c2ccccc21,-5,0,-15,-4.2,1%,
CCOC(=O)CC(=O)CSc1nc(-c2ccccc2)cc(-c2ccc(Cl)cc2)c1C#N,-25,-8,-13,-2.6,1%,

# Remaining list, next part
SMILES,Arbovirus inh,Mtb bLac sens,YopH inh,RecA intein inh,Mtb growth,others
CCOC(=O)c1nn(-c2ccccc2)c(C)c1C(C)=O,-3,-3,8,-7.0,5%,
CN1C(=O)c2ccccc2C(C(=O)O)C1c1cccc([N+](=O)[O-])c1 (centres undefined),6,-1,.,-2.0,2%,
O=C(c1cnn(-c2cccc(F)c2)c1)c1ccccc1O,.,-3,.,3.5,.,
CC(CCc1ccccc1)NC(=O)c1ccco1 (centres undefined),0,2,-32,3.2,-5%,
Nc1ncc(Br)cc1S(=O)(=O)NCCC(=O)NC1CCCCC1,.,0,.,-3.6,.,
COc1ccc(Cl)cc1NC(=O)c1nc2nc(C)cc(C(F)F)n2n1,-6,-6,.,6.6,6%,Arbovirus inh repeat=-4
Cc1ccc(S(=O)(=O)N2CCCC(C(=O)NCc3ccco3)C2)cc1Cl (centres undefined),0,-6,56*,0.2,2%,
COc1ccc(CC(=O)NNC(=O)COc2ccc(Br)cc2C)cc1OC,-10,3,-49,-0.7,-5%,
O=C1/C(=C/c2cccc(F)c2)SC(=S)N1NS(=O)(=O)c1ccccc1,.,-4,.,1.8,.,
CCn1c(SCc2ccc(Cl)cc2Cl)nc2nc3c(cc2c1=O)CCCC3,-16,1,-41,.,0%,
Cc1ccc(C)c(Cn2nnc3c(=O)[nH]c(C4CCCN(C(=O)c5ccco5)C4)nc32)c1 (centres undefined),.,2,.,0.3,.,
CCN(CC(O)Cn1c2ccccc2c2ccccc21)S(=O)(=O)c1ccc(F)cc1 (centres undefined),-27,-13,-4,6.2,13%,
Nn1c(COc2cccc(Br)c2)nnc1SCC(=O)N1CCc2ccccc2C1,-3,0,-28,4.2,-12%,
O=C(CC1C(=O)NCCN1Cc1ccc(-c2ccccc2)cc1)NCC1CCOCC1 (centres undefined),1,-1,.,4.0,-12%,
Cc1c(NC(=O)c2cc3ccccc3o2)c(=O)n(-c2ccccc2)n1C,2,-2,-19,0.8,-6%,
O=C(O)c1cc(-c2ccccc2)nn1CC1CC(c2cccc([N+](=O)[O-])c2)=NO1 (centres undefined),.,6,.,-2.2,-4%,
Cc1cccc(OCC(=O)Nc2ccc3c(c2)nc(CCN2CCN(C)CC2)n3C)c1,-13,-11,11,-0.1,-11%,
CCC(C)C(NS(=O)(=O)c1ccc(C)cc1)C(=O)N1CCOCCOCCOCC1 (centres undefined),.,-16,.,-1.1,.,

# High-throughput results as filed in PubChem.
